# TRPML1 inh: inhibitors of human TRPML1 channel. Q9GZU1. TRPML1-inducible cells, Ca2+ dye fluorescence, FDSS; stronger effect = lower value; inhibition of EC80 agonist-evoked calcium signal. activity change, negative = inhibition, % (test concentration not listed). 0.02% of 390,000 active. AID 624415; in the data active means activity change below about -50%; inconclusive means about -30% to -50%; inactive means above about -30%;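 further: stimulus is agonist 54-4 at its EC80 concentration; on the % scale 0 is the no-effect control and ±100 the full control effect; compound concentration not given in the record; the text of the record puts the active cut at -80%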
# Target sequence (Q9GZU1 whole entry, looked up): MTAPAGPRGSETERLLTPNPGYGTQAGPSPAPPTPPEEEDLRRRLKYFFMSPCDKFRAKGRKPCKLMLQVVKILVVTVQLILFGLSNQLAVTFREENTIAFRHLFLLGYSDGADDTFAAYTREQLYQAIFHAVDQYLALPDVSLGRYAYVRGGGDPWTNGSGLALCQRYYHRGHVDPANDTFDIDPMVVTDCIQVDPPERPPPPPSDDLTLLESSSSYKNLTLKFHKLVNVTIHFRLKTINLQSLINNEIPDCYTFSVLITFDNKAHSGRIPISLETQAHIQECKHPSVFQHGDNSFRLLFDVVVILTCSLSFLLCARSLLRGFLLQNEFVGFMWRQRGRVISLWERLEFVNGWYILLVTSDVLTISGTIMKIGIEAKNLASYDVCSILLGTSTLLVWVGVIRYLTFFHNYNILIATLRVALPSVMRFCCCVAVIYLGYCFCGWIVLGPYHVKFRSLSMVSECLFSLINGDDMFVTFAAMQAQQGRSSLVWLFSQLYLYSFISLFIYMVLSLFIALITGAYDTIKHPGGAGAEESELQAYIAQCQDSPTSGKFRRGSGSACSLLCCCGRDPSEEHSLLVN
#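 Tet-induced TRPML1-DL cells loaded with Ca8 no-wash calcium dye were read kinetically on FDSS. Compound addition was followed by EC80 agonist 54-4 (4 uM final); inhibition was read over 110 s.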
# Menin MLL FP FL: menin-MLL binding inhibition, fluorescein peptide | Fluorescence polarization, fluorescein-MLL peptide displacement from menin | FP activity change, % at 61.4 µM | 290,000 tested, under 10 active; inconclusive = falling polarisation curve, or a change in total fluorescence; inactive = total fluorescence flat and polarisation flat or rising; no compound was filed as active; the % refers to the polarisation; negative = inhibition;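 further: % of control where 0% means no effect; inhibitors lower the polarisation; unlabelled MLL peptide was the positive control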
# TRPML1 agonist: agonists of human TRPML1 channel | 0.12% of 410,000 active | Q9GZU1 | TRPML1-expressing cells, Ca2+ dye fluorescence, FDSS; host cell line not named in the record; reference of the full effect not given here | activation, % (concentration not given with the values); in the data active = activation above about 50%; inconclusive = about 30% to 50%; inactive = below about 30%; further: 0% is about no effect; the text of the record puts the active cut at 80%
#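 Tet-induced TRPML1-DL cells, 1,500 per well, cultured overnight, were loaded with a no-wash Ca2+ dye for 45–90 min. Calcium fluorescence was recorded on the FDSS for 110 s after compound addition, before the EC80 agonist (4 uM 54-4) was added.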
# ClpP mod: qHTS Assay for Activators of ClpP; ATP-dependent Clp protease proteolytic subunit (Bacillus subtilis (strain 168)), P80244; purified B. subtilis ClpP, FRET peptide cleavage, 20 min; Potency, µM (titrated, usually from 57.5 µM), for inactives: at the highest dose activity change, negative = active; 1.9% of 340,000 active; active = well fitted falling curve with a large enough effect; inconclusive = small, poorly fitted or top-dose-only effect; inactive = no such curve, though single readings can be large or run the other way; further: potency means the concentration at half of the fitted maximal effect; the source files actives as falling curves though it sought activators and does not explain the sign; nearly all actives have a fitted effect of over 65% in size; many hits overshoot -100%
# Target sequence (P80244 whole entry, looked up): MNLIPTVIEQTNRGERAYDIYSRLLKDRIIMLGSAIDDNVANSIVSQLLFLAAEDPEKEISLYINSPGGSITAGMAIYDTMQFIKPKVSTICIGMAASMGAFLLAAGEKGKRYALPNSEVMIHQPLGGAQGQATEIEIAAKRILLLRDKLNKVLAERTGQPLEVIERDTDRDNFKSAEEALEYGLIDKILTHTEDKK
#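 Buffer: 100 mM Tris/HCl pH8, 100 mM KCl, 0.05% low protease BSA, 2.5% glycerol, 0.01% Tween-20. ClpP 10 microg/mL final; 20 min RT; delta FRET normalized to ADEP and DMSO controls.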
# gsp agonist: activates gsp, the McCune-Albright syndrome mutation | AID 624287 | 0.13% of 340,000 active | Potency, µM (doses to about 76.9 µM), for the others: at the highest dose activation (cAMP increase), hits mostly activators | gsp mutant cells, cAMP HTRF, 30 min; control for the full effect not named in the record; active = well fitted activation curve with a large enough effect; inconclusive = small, poorly fitted or top-dose-only effect, or another doubt; inactive = no such curve, though single readings can be large or run the other way; cell line not stated here;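 further: phosphodiesterase inhibitor Ro 20-1724 added with compounds to block cAMP breakdown; potency means the concentration at half of the fitted maximal effect; nearly all actives have a fitted effect of over 60% in size; about a fifth of the inactives were tested at one dose only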
#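 Cells in DMEM/10% FBS with G418 were pretreated with compounds in DMSO plus […] (300 uM stock) for 30 min at 37C. cAMP was measured by HTRF (cAMP-d2 plus anti-cAMP antibody-K) after 30 min at room temperature.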
# gsp antagonist: antagonists of gsp mutant (McCune-Albright syndrome); gsp-mutant cells, cAMP HTRF, 30 min; control for the full effect not named in the record; 0.4% of 340,000 active; Potency, µM (titrated, usually from 76.9 µM), for inactives: at the highest dose activity change, negative = inhibition, hits mostly inhibitors; active = falling curve of any shape with a large fitted effect; inconclusive = falling curve, mostly with a smaller effect; inactive = flat or rising curve; cell line not stated here;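 further: intracellular cAMP measured with PDE inhibitor Ro 20-1724 present during compound exposure; potency means the concentration at half of the fitted maximal effect; on the % scale 0 is the no-effect control and ±100 the full control effect; nearly all actives have a fitted effect of over 65% in size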
#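 Cells, 2000/well, grown 16–24 h in DMEM 10% FBS with 0.5 mg/ml G418, then compounds plus […] (300 uM addition stock), 30 min at 37C. cAMP read by HTRF (cAMP-d2 and anti-cAMP antibody-K in lysis buffer) after 30 min RT.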
# The depositor's hits bear a star; ? = inconclusive; · = no result given; & = joins results of further samples; [ ] = dose if it differs, or a comment.
SMILES,TRPML1 inh,Menin MLL FP FL,TRPML1 agonist,ClpP mod,gsp agonist,gsp antagonist
CCOc1ccc(C(=O)N2CCN(c3ncccn3)CC2)cc1,-10,·,-0.5,-7.3%,2%,3%
Cc1cc(C)c(S(=O)(=O)Nc2ccccc2C(=O)N2CCOCC2)c(C)c1,6,·,-0.4,0.4%,11%,-5%
CCCCCCn1c(-c2cccs2)n[nH]c1=S,13,-1.3,1.2,·,?,?
Cn1cc(-c2cccc(Cl)c2)cc(C#N)c1=O,10,-1.0,-0.4,·,-2%[15.4 µM],8%
O=C1[C@@H]2Cc3ccccc3CN2C(=O)N1c1cccc(F)c1,1,0.5,0.5,-0.3%,1%,4%
Cc1ccccc1C(=O)NNC(=O)C1CCN(C(=O)Nc2ccccc2)CC1,2,·,0.0,·,8%[15.4 µM],5%
COc1ccc(C2CC(=O)Oc3c(C(CCN4CCCC(C)C4)c4ccc(N(C)C)cc4)c(OC)cc(OC)c32)cc1 (stereo not drawn),8&-6,-1.6&8.3,0.3&-0.6,-1.5%,·,5%
CCOC(=O)c1sc2ccc(S(=O)(=O)N3CC(C)CC(C)C3)cc2c1N (stereo not drawn),10,1.9,0.4,32%,5%,11%
CSc1ccccc1NC(=O)NCCCl,-4,-4.7,0.9,·,-49%[inhibitor],9%
C=CCNc1nc(-c2ccc(O)c(C(N)=O)c2)cs1,2,4.2,0.6,?,-1%,-6%

# 3 entries drawn at random from the list so far, as already listed:
SMILES,TRPML1 inh,Menin MLL FP FL,TRPML1 agonist,ClpP mod,gsp agonist,gsp antagonist
CSc1ccccc1NC(=O)NCCCl,-4,-4.7,0.9,·,-49%[inhibitor],9%
CCCCCCn1c(-c2cccs2)n[nH]c1=S,13,-1.3,1.2,·,?,?
Cc1cc(C)c(S(=O)(=O)Nc2ccccc2C(=O)N2CCOCC2)c(C)c1,6,·,-0.4,0.4%,11%,-5%

# Additional structures:
SMILES,TRPML1 inh,Menin MLL FP FL,TRPML1 agonist,ClpP mod,gsp agonist,gsp antagonist
O=C1CCC(c2ccccc2)N1c1ccccc1 (stereo not drawn),10,·,0.6,-2.8%,-14%,-3%
CC(C)c1nc(SCC(=O)Nc2cccc(C(=O)O)c2)c2c3c(sc2n1)CCCC3,19,2.3,-0.8,0.3%,-4%[15.4 µM],-18%
COc1ccc(OC)c(NC(=O)CN2CCCN(Cc3cc(C)ccc3C)S2(=O)=O)c1,-19,·,1.1,0.3%,·,·
COCCCNc1nc2ccccc2nc1NS(=O)(=O)c1ccc(OC)cc1,26,5.5,-0.2,-1.9%,-2%[15.4 µM],12%
CC1CCN(S(=O)(=O)c2ccc(NC(=O)CN3CCN(c4ccccc4)CC3)cc2)CC1,22,6.9,-0.7,-9.7%,0%,2%
Cc1ccccc1OCCNc1cc(N2CCN(CCO)CC2)ccc1[N+](=O)[O-],23,0.1,0.0,-4.0%,-8%,19%
Cc1c(CC(=O)N2CCN(C(=O)C3COc4ccccc4O3)CC2)c(=O)oc2cc(O)ccc12 (stereo not drawn),6,-5.2,1.4,3.4%,?,-18%
CC(NC(=O)COC(=O)C1CCN(S(=O)(=O)c2ccccc2C(F)(F)F)CC1)c1ccccc1 (stereo not drawn),2,-1.7,0.1,-1.9%,-21%,3%
COc1cc(/C=C2/C(=O)N(c3ccc(C(=O)O)cc3)N=C2C)cc(OC)c1O,1,20,1.0,·,7%,-14%
COc1cccc2cc(C(=O)N3CCCc4ccccc43)oc12,-1,·,2.1,-0.2%,?,-4%
COC(=O)CN1C(=O)C(C)(C)Oc2ccc(C(=O)NC3CCCC3)cc21,-5,-2.6,-0.6,0.5%,7%[15.4 µM],-2%
Cc1cc(C)n(CC(=O)N/N=C/c2ccc(C)o2)n1,4,2.9,-0.3,1.2%,-22%,11%
Cc1onc(-c2ccccc2)c1C(=O)Oc1ccccc1,-3,1.1,1.7,1.1%,-9%[15.4 µM],-23%
COc1cc(C(C#N)N2N=C(c3ccccc3)CC2c2ccccc2)ccc1O (stereo not drawn),16,2.8,-0.4,-9.5%,3%,-13%
CC(C)(C)C(=O)C1=C(O)C(=O)N(Cc2ccccc2)C1c1ccccc1F (stereo not drawn),7,-0.2,0.7,0.4%,25%[15.4 µM],-11%
CS(=O)(=O)N1CCC(C(=O)Nc2ccc(Br)cc2F)CC1,-3,2.3,0.4,-7.0%,-11%,2%
O=C(NCCCN1CCCC1=O)c1cccc(S(=O)(=O)NCc2ccccc2)c1,1,·,-0.5,-11%,-47%,0%
OCCCNc1nnc(-c2ccccc2)c2ccccc12,73,16,-0.5,-3.6%,25%,0%
Cc1cc(C)cc(NC(=O)N(CCC#N)Cc2cccs2)c1,3,-2.0,0.8,·,-1%[15.4 µM],-7%
O=C(NCCN1C(=O)S/C(=C\c2ccccc2F)C1=O)C1CCCN1C(=O)c1cccs1 (stereo not drawn),9,6.6,-0.3,1.3%,-21%,-14%
Nc1ccc2nc3c(=O)[nH]c(=S)[nH]c3nc2c1,5,?,7.7,1.1%,15%,-8%
CCC(C)NC(=O)CCC(=O)NNc1nc2ccccc2c2nc(C)nn12 (stereo not drawn),1&-22,-0.6,-0.4&0.0,0.0%&0.0%,24%[15.4 µM],8%
COc1cc(C2=NOC(C(=O)NCc3ccco3)C2)cc(OC)c1OC (stereo not drawn),-3,6.1,0.0,-2.5%,20%,19%
COc1ccccc1/C=C/c1ccc2cccc(O)c2n1,10,-1.0,0.8,-7.2%,13%,8%
Cc1nc2ncnn2c(C)c1CCC(=O)NCc1ccc(Cl)cc1,3,·,-0.4,-3.6%,·,·
O=C(NCC(c1ccco1)N1CCN(c2ccc(F)cc2)CC1)C(=O)NC1CCCCC1 (stereo not drawn),6,·,0.1,-1.1%,-21%[15.4 µM],10%
NNC(=O)c1sc2cc(C(F)(F)F)cnc2c1-c1cccnc1,9,2.4,1.7,·,24%[15.4 µM],4%
CCc1nnc(NC(=O)c2nc(Cl)ccc2Cl)s1,3,·,0.0,2.2%,?,-7%
O=C(Cc1nn[nH]n1)NCCC1=CCCCC1,8,-0.5,0.4,0.8%,-69%[inhibitor],-6%
CCOc1ccc(CNC(=O)C2Cc3ccccc3N2C(=O)CC)cc1OC (stereo not drawn),-5,·,0.0,-0.2%,·,·
O=C(O)c1ccc(N2C(=O)c3cccc4c(C(=O)O)ccc(c34)C2=O)cc1,12,-3.9,0.0,·,20µM*,-7%
COc1ccc(N(CC(=O)NCc2ccc3c(c2)OCO3)S(C)(=O)=O)cc1OC,0,-2.3,0.7,-2.1%,-4%,2%
CCCSc1nnc(N)s1,1,1.2,-0.4,-0.3%,28%,8%
O=C(CN1CCOCC1)N/N=C/c1ccc(-c2ccc(Br)cc2)o1,19,1.6,0.2,·,0%[15.4 µM],-12%
COc1ccc(C(=O)c2sc3nc(C)cc(-c4cccs4)c3c2N)cc1,1,0.1,?,-0.4%,10µM*,-15%
Cc1cc(C(=O)CSc2nc3ccccc3c(=O)[nH]2)c(C)n1C,7,4.5,1.8,-0.3%,7%,3%
COc1ccc(CCc2nnc(CCC(=O)NCc3cnc4ccccn34)o2)cc1,12,-2.0,0.1,3.3%,-147%[inhibitor],5%
Cc1cccc(C)c1NC(=O)COC(=O)c1cccnc1,-3,-11,4.5,-3.1%,?,12%
Cc1ccnn1CC(=O)N/N=C/c1ccc([N+](=O)[O-])s1,25,4.8,0.8,-0.1%,11%,3%
CC(C(=O)NCc1cccc(Br)c1)n1ncn2cccc2c1=O (stereo not drawn),-18,·,2.5,0.4%,·,·
O=[N+]([O-])c1cc(-c2nc(-c3cccnc3)no2)ccc1NCc1ccccc1,-15,·,-0.7,-1.6%,·,·
CC(=O)NCc1ccc(-c2csc(-c3cccs3)n2)cc1,-9,5.3,-0.8,·,14%[15.4 µM],-4%
Cc1ccc(NC(=O)c2cccs2)cc1[N+](=O)[O-],11,1.5,-0.7,·,17%[15.4 µM],-16%
Cc1cccc([N+](=O)[O-])c1NC(=O)COC(=O)C1CC2CCCC(C1)C2=O (stereo not drawn),-13,·,-0.1,·,-12%[15.4 µM],8%
CSCCC(NC(=O)c1ccccc1Cl)C(=O)N1CCN(C(C)=O)CC1 (stereo not drawn),13,·,5.5,0.9%,14%,13%
O=C(C1CCN(S(=O)(=O)c2cccc([N+](=O)[O-])c2)CC1)N1CCOCC1,44,1.2,-0.4,·,20%[15.4 µM],9%
O=C(C(Cc1ccccc1)N1C(=O)c2ccccc2C1=O)N1c2ccccc2CCc2ccccc21 (stereo not drawn),-6,3.9,1.6,-1.9%,-21%,-10%
O=C(CCC(=O)OCC(=O)c1cccc([N+](=O)[O-])c1)Nc1ccccc1Cl,-3,-0.5,-0.3,-0.4%,-56%[inhibitor],8%
Cn1c(=O)c2c(nc(SCc3cccnc3)n2Cc2ccc(F)cc2)n(C)c1=O,7,0.0,0.1,0.7%,-18%,-12%
CN1CCN(NC(=O)C23CC4CC(CC(C4)C2)C3)CC1,-11,-1.4,0.3,0.0%,-20%,-2%

# Next section.
SMILES,TRPML1 inh,Menin MLL FP FL,TRPML1 agonist,ClpP mod,gsp agonist,gsp antagonist
Cc1cc(C(F)(F)F)nn1CC(=O)NCC1CCCO1 (stereo not drawn),4,0.9,0.9,1.1%,2%,15%
COc1ccc(NC(=O)c2cccs2)cc1NC(=O)c1ccco1,-8,3.3,2.9,-8.0%,-2%,-4%
CCN(CC(=O)Nc1ccc2c(c1)OCCO2)C(=O)CC1CCCC1,4,5.3,-0.5,1.7%,-22%,18%
CCN1c2ccccc2N(C)C1(C)c1ccccc1 (stereo not drawn),6,?,1.2,-0.7%,-7%[15.4 µM],-14%
Cn1c(NCc2c[nH]c3ccccc23)nc2ccccc21,-13,0.4,1.2,0.8%,9%[15.4 µM],12%
COc1ccccc1CCNC(=O)C(=O)NCC(c1cccs1)S(=O)(=O)c1ccc(C)cc1 (stereo not drawn),58,·,1.9,1.0%,·,·
CCN1C(=O)[C@H]2[C@@H](c3ccc(SC4CCCCC4)cc3)N3CCCC[C@@]3(C(=O)OC)[C@H]2C1=O,22,·,-0.3,-1.1%,21%,8%
O=c1oc2ccccc2c(Nc2cccc3ccccc23)c1[N+](=O)[O-],24,-1.7,-0.6,-1.9%,-56%[inhibitor],-6%
CC1CCCC(C)N1C(=O)CSc1nc2ccccc2s1 (stereo not drawn),17,5.2,0.7,2.6%,24%,?
Cc1cc(OC(C)C(=O)Nc2ccncc2)ccc1Cl (stereo not drawn),6,-1.1,-0.6,1.8%,-36%[inhibitor],-6%
CCN(CC)S(=O)(=O)c1cc(NC(=O)CSc2nnc(-c3cccs3)o2)ccc1C,9,6.4,-0.5,-8.7%,-25%,-8%
O=C(Nc1ccc2oc(-c3cccnc3)nc2c1)c1ccc(-c2ccc(OC(F)(F)F)cc2)o1,28,·,-0.4,-12%,·,·
